Screening data (PubChem)
Mtb bLac sens: beta-lactam sensitization of Mtb H37Rv | M. tuberculosis H37Rv growth with meropenem, percent inhibition; hits of this screen are not shown here | inhibition, % at 25 µM | actives 0.27% (n = 330,000);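 active = about 74% or more and at least 40 points above the plate without the antibiotic, then above 30% in a dose series; inconclusive = first-round hits that could not be retested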;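 also: growth measured after seven days incubation then overnight dye step; 0% = bacteria only wells and 100% = bacteria with antibiotic; twin plates without the antibiotic show which effects depend on it; some results filed as inactive read as strong as hits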
YopH PTP inh: inhibitors of Yersinia enterocolitica YopH tyrosine phosphatase. inhibition, %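 (about 10 µM by stock and volumes)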. AID 898. actives 0.16% (n = 140,000). fluorescence Ex485/Em525;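 active = inhibition of 50% or more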;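 also: controls were vehicle for no effect and minimum signal wells for full effect; inactives centre near -20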
RecA splice inh: blocks M. tuberculosis RecA intein splicing | P9WHJ3 | cell-free RecA intein splicing, fluorescence | inhibition, %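 (about 9 µM by stock and volumes)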 | actives 0.75% (n = 290,000) | AID 2221; in the data active = inhibition above about 30%; inconclusive = no clear call, values can overlap the other calls;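 also: 0% = vehicle wells and 100% = reference inhibitor control wells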
Target sequence (P9WHJ3 whole entry, looked up, canonical isoform): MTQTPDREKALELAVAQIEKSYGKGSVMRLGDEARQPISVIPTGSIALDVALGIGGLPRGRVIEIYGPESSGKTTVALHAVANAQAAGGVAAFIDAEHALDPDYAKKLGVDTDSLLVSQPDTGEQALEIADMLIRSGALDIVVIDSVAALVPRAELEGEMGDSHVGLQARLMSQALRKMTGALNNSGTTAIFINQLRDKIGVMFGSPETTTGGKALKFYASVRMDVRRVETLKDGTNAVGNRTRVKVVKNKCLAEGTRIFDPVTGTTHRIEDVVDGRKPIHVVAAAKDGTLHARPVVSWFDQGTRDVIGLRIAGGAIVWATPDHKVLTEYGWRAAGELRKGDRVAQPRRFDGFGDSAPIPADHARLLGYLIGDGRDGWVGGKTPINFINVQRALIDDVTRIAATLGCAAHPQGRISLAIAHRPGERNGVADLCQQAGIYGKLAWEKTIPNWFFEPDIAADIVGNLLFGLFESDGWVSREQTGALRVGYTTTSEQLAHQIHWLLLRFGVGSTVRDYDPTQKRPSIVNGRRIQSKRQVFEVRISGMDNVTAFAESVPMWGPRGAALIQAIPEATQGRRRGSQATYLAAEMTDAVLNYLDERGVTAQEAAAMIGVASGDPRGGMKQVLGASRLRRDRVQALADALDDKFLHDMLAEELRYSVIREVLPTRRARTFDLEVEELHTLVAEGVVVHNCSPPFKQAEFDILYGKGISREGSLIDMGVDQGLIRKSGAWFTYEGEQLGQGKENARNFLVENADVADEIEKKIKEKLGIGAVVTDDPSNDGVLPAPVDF
Arbovirus anti: arbovirus infection inhibition | arbovirus infection cell-based antiviral screen | inhibition, % at 10 µM | actives 0.37% (n = 200,000);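 active = inhibition from about 30%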;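 also: bluetongue infection of BSR cells; cell survival read as ATP light after 72 h; 0% = infected wells without compound and 100% = uninfected wells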
Mtb H37Rv: M. tuberculosis H37Rv growth inhibitors, H37Rv strain (AID 1626) | M. tuberculosis H37Rv growth inhibition; higher % means a stronger effect | actives 0.95% (n = 220,000) | inhibition, % at 10 µM, or IC50 in µM where a hit was titrated;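 active = confirmed in a dose series; inconclusive = inhibition above 80% but not taken into the dose series; inactive = below 80% or under 30% at every dose of the series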;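 also: bacteria incubated seven days before Alamar blue readout; 0% = bacteria only wells and 100% = bacteria with antibiotic wells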
Arbovirus anti repeat: second read-out of Arbovirus anti, no call of its own (marks repeat the call); inhibition, %; measured here: 10K subset replicate screen; many hits read low in the repeat;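 first of two repeat runs on a subset; 0% = infected and 100% = uninfected wells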
The depositor's hits bear a star; i = inactive; ? = inconclusive; / = no result given. An excerpt; rates above refer to the full screens.

SMILES	Mtb bLac sens	YopH PTP inh	RecA splice inh	Arbovirus anti	Mtb H37Rv	others
Cc1ccc(NC(=O)N2CCC(NC(=O)C(C)(C)C)CC2)cc1	0	-19	1.0	4	-10%
O=C(Nc1nc(-c2ccc(Cl)cc2Cl)cs1)C1CCCO1 (stereo unspecified)	16	-22	1.5	8	1%
Cc1nnc(NC(=O)C2CCCN(S(=O)(=O)Cc3ccccc3)C2)s1 (stereo unspecified)	-3	-24	0.8	0	-4%
Cc1ccc(S(=O)(=O)/N=S(/C)c2ccccc2)cc1 (stereo unspecified)	-5	26	/	9	0%
COc1ccc2c(C)c(CCC(=O)NCCCN3CCCC3=O)c(=O)oc2c1C	-11	/	-1.2	/	/
ClCc1csc(N/N=C/c2cccs2)n1	-4	/	0.7	/	-4%
Cc1cccc(CCNCc2cc3cccc(C)c3[nH]c2=O)c1	-7	/	-0.4	/	/
COc1ccc(S(=O)(=O)NCC2CCCN(Cc3ccccc3Cl)C2)cc1 (stereo unspecified)	4	/	2.1	/	/
O=C(NCCN1CCc2ccccc2C1)C1CC(=O)N(C2CCCC2)C1 (stereo unspecified)	7	-6	-1.3	0	-6%
Cc1cc(=O)n2nc(N3CCCC3C(=O)Nc3ccccc3C)sc2n1 (stereo unspecified)	-2	/	0.5	/	/
COc1ccc(/C=C/C(=O)c2ccccc2)c(OC)c1	85	/	-0.4	-2	45%
O=C(CC1C(=O)NCCN1Cc1ccccc1)NCCN1CCCCC1=O (stereo unspecified)	0	/	-2.5	/	/
O=C(Cc1ccc(Cl)cc1)Nc1ccccc1C(=O)Nc1ccc(C(=O)O)cc1	4	/	-6.4	-2	-2%
O=C(N/N=C/c1ccc(-n2ccnc2)cc1)c1cccs1	-14	/	0.2	/	/
Cc1ccc(S(=O)(=O)N2CCCCC2C(=O)N2CCN(c3ccccc3F)CC2)cc1 (stereo unspecified)	3	-12	2.6	0	4%
CCOC(=O)N1CCC(NC(=O)c2cc(C(=O)Nc3ccc(F)cc3F)ccc2CO)CC1	-7	-32	-7.0	17	-9%
CCN1C(=O)c2ccc(-c3nc4ccccc4c(=O)o3)cc2C1=O	0	/	0.6	1	/	Arbovirus anti repeat=2
O=C(Nc1ccc(S(=O)(=O)O)cc1)c1ccc2c(c1)S(=O)(=O)c1ccccc1C2=O	1	/	-7.5	/	-1%
CSc1sc(C(=O)N(C)C)c2c1S(=O)(=O)N(C)c1ccccc1-2	23	/	-2.8	/	7%
CC(=O)c1cc(C#N)c(Oc2cc(C)cc(C)c2)nc1C	-8	-59	0.0	7	8%
O=C(Nc1cccc(C(=O)O)c1)Nc1cccc2ccccc12	8	/	-2.0	/	/
COCCNC(=O)c1cc2c(=O)n3cccc(C)c3nc2n(Cc2ccncc2)c1=N	-3	-34	i	1	-1%
CC(=O)c1cccc(CN2CCN(C3CCCCC3)C(CCO)C2)c1 (stereo unspecified)	1	/	-0.5	/	-2%
O=c1c2ccccc2ncn1Cc1cccc2ccccc12	7	/	3.0	-7	-5%
CCOC(=O)C1CCN(C(=O)COc2cccc(C)c2)CC1	6	9	1.4	6	-6%
CN(CCCNC(=O)c1ccc(N2CCCC2=O)cc1)c1ccccc1	-1	6	-1.9	-6	-7%
COc1ccc(C(=O)N/N=C(\C)CC(=O)NC2CCCCC2)c(OC)c1	-10	/	1.1	/	/
Nc1cc(N)nc(SCC(=O)c2ccc3c(c2)NC(=O)CO3)n1	-3	/	-5.5	-2	5%
CCOc1ccccc1NC(=O)Cn1nnc(C(=O)NCCc2ccc(OCC)c(OCC)c2)c1N	-4	/	-6.1	/	/
C=CCN1C(=O)C(C)S/C1=N\S(=O)(=O)c1ccc(Cl)cc1 (stereo unspecified)	-1	-7	1.6	-6	-4%
CS(=O)(=O)N1CCC(C(=O)Nc2ccc(Br)cc2F)CC1	0	-16	1.9	8	-12%
COc1cc(C(=O)N/N=C/c2cccc(Oc3ccccc3)c2)ccc1O	86	/	6.7	/	/
CCOC(=O)C1C(c2ccc(C)o2)NC(=O)NC1(O)C(F)(F)F (stereo unspecified)	-3	-19	-3.4	-3	/
CCC(C(=O)NC1CCCCC1)n1c(SCc2ccc(F)cc2)nc2ccncc21 (stereo unspecified)	-5	-13	3.2	3	2%
CC1=NOC(=O)/C1=C\c1ccccc1	-8	/	4.1	/	3%
CCCOc1cc(C)c(S(=O)(=O)n2ccc(C)n2)cc1C	-7	-32	5.9	8	10%

Random excerpt: 6 compounds from above.
SMILES	Mtb bLac sens	YopH PTP inh	RecA splice inh	Arbovirus anti	Mtb H37Rv	others
CCC(C(=O)NC1CCCCC1)n1c(SCc2ccc(F)cc2)nc2ccncc21 (stereo unspecified)	-5	-13	3.2	3	2%
CN(CCCNC(=O)c1ccc(N2CCCC2=O)cc1)c1ccccc1	-1	6	-1.9	-6	-7%
CCCOc1cc(C)c(S(=O)(=O)n2ccc(C)n2)cc1C	-7	-32	5.9	8	10%
CCOC(=O)C1C(c2ccc(C)o2)NC(=O)NC1(O)C(F)(F)F (stereo unspecified)	-3	-19	-3.4	-3	/
Nc1cc(N)nc(SCC(=O)c2ccc3c(c2)NC(=O)CO3)n1	-3	/	-5.5	-2	5%
CCOc1ccccc1NC(=O)Cn1nnc(C(=O)NCCc2ccc(OCC)c(OCC)c2)c1N	-4	/	-6.1	/	/

Back to the main list, starting 2 compounds before the break.
SMILES	Mtb bLac sens	YopH PTP inh	RecA splice inh	Arbovirus anti	Mtb H37Rv	others
CC1=NOC(=O)/C1=C\c1ccccc1	-8	/	4.1	/	3%
CCCOc1cc(C)c(S(=O)(=O)n2ccc(C)n2)cc1C	-7	-32	5.9	8	10%
C=CCNC(=O)c1ccc(C(=O)c2ccccc2)cc1	-1	-25	-0.6	-2	-8%
CCCc1cc(N2CCOCC2)n2nc(C)c(-c3ccccc3)c2n1	?	/	-1.4	/	/
CC(NC(=O)c1ccccc1F)c1ccccc1 (stereo unspecified)	-4	/	-4.4	/	8%
CC(C)(C)NC(=O)c1cccc2c1OC(C)(C)C2	3	-1	0.3	1	-6%
Cc1nc(C(C)NC(=O)CCc2nnc(Cc3c[nH]c4ccccc34)o2)cs1 (stereo unspecified)	-3	/	-1.7	-2	-3%
Cc1ccc(NC(=O)Cn2cnc3cc([N+](=O)[O-])ccc3c2=O)c(Cl)c1	-6	/	0.5	/	8%
Cc1nc(SCC(=O)Nc2ccc(F)cc2)c2oc3ccccc3c2n1	0	-8	0.5	-1	-5%
C=CCOc1cccc(C2C(C(=O)c3ccc(C)o3)=C(O)C(=O)N2CCN(C)C)c1 (stereo unspecified)	-4	-25	/	3	-3%
Cc1cc(OCc2cc(C(=O)NC(C)c3c(C)nn(C)c3C)no2)cc(C)c1Cl (stereo unspecified)	4	/	2.4	/	/
CCCC(=O)Nc1nn(CCC)c2nc3ccccc3cc12	5	-24	-78	0	-6%
O=C(OCn1ncc(Cl)c(Cl)c1=O)c1ccccc1Cl	100	-19	89*	-29	?
O=C(/C=C/c1ccc(S(=O)(=O)NCc2ccco2)cc1)N1CCN(c2ccccc2)CC1	-6	/	5.5	-12	8%
O=C(NC(NC(=S)Nc1ccccc1)C(Cl)(Cl)Cl)c1cccc(Cl)c1 (stereo unspecified)	17	-25	-1.9	-33	7%
O=C(O)c1ccc(N/N=C/c2ccc3c(c2)OCO3)cc1	10	/	-3.7	-6	-1%
CCOC(=O)c1sc(NC(=O)COC(=O)Cn2cnc3ccccc32)c(C(=O)OCC)c1C	22	-24	1.4	0	/
Cc1cccc(N2CCN(C(=O)CCNS(=O)(=O)c3ccc4c(c3)CCC(=O)N4)CC2)c1C	4	-22	-0.1	0	-15%
O=C(CCCN1C(=O)c2cccnc2C1=O)Nc1ccccc1F	-8	/	-2.0	10	5%
CN1CCN(c2nc3c(c(=O)[nH]c(=O)n3C)n2CCSc2nnnn2-c2ccccc2)CC1	2	/	2.2	/	-11%
CCC(=O)N(CCC(c1ccco1)c1ccccc1OC)Cc1cccs1 (stereo unspecified)	8	7	24	-6	-2%
COc1ccc(NC(=O)c2cccc(NC(=O)C3C4CC5OC(=O)C3C5C4)c2)c(OC)c1 (stereo unspecified)	2	9	3.8	5	-3%
Cc1nc2ccccc2n1CC(=O)N1CC(=O)Nc2ccccc21	1	-38	-1.2	-5	-2%
CCCCC(=O)Nc1nc(C)c(-c2csc(Nc3cc(Cl)ccc3OC)n2)s1	99	-37	2.7	-10	65%
O=C(Nc1ccc(S(=O)(=O)N2CCCC2)cc1)N1c2ccccc2Sc2ccccc21	-3	-15	3.7	-2	?
C=CCOc1ccc(Br)cc1/C=C1\NC(=S)N(C(C)=O)C1=O	0	/	-1.4	/	/
COc1cc2c(cc1OC)CN(C(=O)c1cccc(S(=O)(=O)N(C)C)c1)CC2	-5	/	-0.2	/	-11%
CCOc1ccccc1C(=O)NC1CCN(Cc2ccccc2)CC1	-5	/	0.8	/	/
COc1ccccc1NC(=O)CSc1nnnn1C1CCCCC1	7	/	2.4	/	/
CCn1c(=O)n(CC)c2cc(S(=O)(=O)N3CCOCC3)ccc21	3	-37	4.5	4	0%
COc1cc2c(c(OC)c1OC)-c1ccc(NC(=O)c3ccc(F)cc3)c(=O)cc1[C@@H](NC(C)=O)CC2	-3	/	4.2	/	/
COCCCNc1nc2nonc2nc1N1CCN(C2CCCC2)CC1	-1	/	0.7	2	-6%
O=C(NCc1cccc(Br)c1)c1cc(-c2ccccc2)nn1CC1CC(c2cccnc2)=NO1 (stereo unspecified)	23	/	5.4	/	12%
O=[N+]([O-])c1ccc(/C=N/N2CCN(Cc3ccccc3)CC2)cc1	6	/	3.9	/	/
COc1cccc(NC(=O)CNC(=O)c2ccc(C)cc2)c1	0	/	-3.8	2	1%
COCc1cc(C)nc(SCC(=O)Oc2ccc(Cl)cc2)c1C#N	23	/	0.7	4	1%
O=c1c2ccccc2c(C=Nc2ccc(O)cc2)c(O)n1-c1nccs1	-4	/	-15	/	-6%
CC1=CC(C)(C)Nc2cc(C)c(C)cc21	-7	-45	/	6	-6%

Of the compounds above, 2 contain a tert-butyl group.
SMILES	Mtb bLac sens	YopH PTP inh	RecA splice inh	Arbovirus anti	Mtb H37Rv	others
Cc1ccc(NC(=O)N2CCC(NC(=O)C(C)(C)C)CC2)cc1	0	-19	1.0	4	-10%
CC(C)(C)NC(=O)c1cccc2c1OC(C)(C)C2	3	-1	0.3	1	-6%

Following part
SMILES	Mtb bLac sens	YopH PTP inh	RecA splice inh	Arbovirus anti	Mtb H37Rv	others
Cc1ccc(CNC(=O)CCSCc2ccc(C)cc2)cc1	4	/	0.8	/	/
COc1ccc(N2CCN(C(CNC(=O)C3CCCCC3)c3ccco3)CC2)cc1 (stereo unspecified)	-1	/	-4.3	/	/
S=c1[nH]nc(Cc2n[nH]c(=S)n2-c2ccccc2)n1-c1ccccc1	-1	/	-5.6	/	/
CC(C)CNC(=O)Cn1nc(C(F)(F)F)c2c1CCCC2	-5	/	-2.3	2	-13%
Cc1cccc(OCC(=O)Nc2ccccc2N2CCCC2)c1C	55	/	-3.0	/	/
Cc1cc(C)cc(NC(=S)N(C)C)c1	-6	/	-0.5	/	-2%
CC(=O)c1cccc(NC(=O)CSc2ccc(-c3ccccn3)nn2)c1	100	/	0.3	/	/
Cn1c(=O)c2c(nc(NCc3ccco3)n2CCc2ccccc2)n(C)c1=O	-1	-42	1.2	6	0%
CN(C)C(=O)COC(=O)/C=C/c1cn(-c2ccccc2)nc1-c1cccs1	2	/	2.2	6	8%
CCC(=NCc1cccnc1)c1c(O)n(-c2ccccc2)c(=O)[nH]c1=O	-1	/	-8.9	/	4%
CC1CCN(C(=O)c2cc3c(ccc4ccccc43)o2)CC1	-6	/	13	/	/
CCO[C@H]1OC(C(=O)O)=C[C@@H](c2coc3ccccc3c2=O)[C@@H]1CCCO	-7	/	-2.3	/	1%
CCOC(=O)c1sc(NC(=O)c2cc(-c3ccccc3C)nc3ccccc23)c(C#N)c1C	22	-29	4.5	9	2%
C=CCN(CC=C)CCCOc1ccc(C)cc1OC	-9	/	-1.6	0	-3%
CCOC(=O)C1CCN(C(=O)CCCCn2c(=O)[nH]c3ccccc3c2=O)CC1	77	-19	-2.3	1	1%
O=C(Nc1nn[nH]n1)c1cccc(Oc2ccccc2)c1	2	-30	1.9	-3	-4%	Arbovirus anti repeat=-1
COCCNC(=O)CN(C(=O)Cn1nnc2ccccc21)c1ccccc1	0	-37	-3.8	7	-6%

Part of the list above in order of length of the SMILES, descending:
SMILES	Mtb bLac sens	YopH PTP inh	RecA splice inh	Arbovirus anti	Mtb H37Rv	others
CCOC(=O)c1sc(NC(=O)c2cc(-c3ccccc3C)nc3ccccc23)c(C#N)c1C	22	-29	4.5	9	2%
COCCNC(=O)CN(C(=O)Cn1nnc2ccccc21)c1ccccc1	0	-37	-3.8	7	-6%
O=C(Nc1nn[nH]n1)c1cccc(Oc2ccccc2)c1	2	-30	1.9	-3	-4%	Arbovirus anti repeat=-1
